High-throughput results as filed in PubChem BioAssay.
Vaccinia Venus: vaccinia inhibition (Venus reporter); AID 720580; Vaccinia virus Venus reporter expression, fluorescence; Potency, µM (highest dose often 36.5 µM), for the others: top-dose activity change, negative = inhibition, usual class: inhibitors; 330,000 tested, 0.46% active; active means well fitted inhibition curve with a large enough effect; inconclusive means small, poorly fitted or top-dose-only effect; inactive means no such curve, though single readings can be large or run the other way; tested in A549 cells; also: nearly all actives have a fitted effect of over 30% in size; inactives centre near -10
VACV mCherry inh: vaccinia inhibition (mCherry reporter) | Vaccinia virus mCherry reporter infection, fluorescence; about a quarter of the inactives have no number | Potency, µM (doses to about 36.5 µM), for the others: top-dose activity change, negative = inhibition, hits mostly inhibitors | 310,000 tested, 0.63% active | AID 720579; active = well fitted inhibition curve with a large enough effect; inconclusive = small, poorly fitted or top-dose-only effect; inactive = no such curve, though single readings can be large or run the other way; tested in A549 cells; also: nearly all actives have a fitted effect of over 35% in size; inactives centre near -10
* hit, by the source's call; i = inactive; ? = inconclusive; . = no result given; & = joins results of further samples; [ ] = another dose, or the depositor's remark. % is scaled to controls: 0 for no effect and ±100 for the full control effect; potency is read from the fitted curve at half-maximal effect. Not a hit list (roughly 0.87% active in at least one column).

SMILES	Vaccinia Venus	VACV mCherry inh
COCCCNC(=O)C[C@@H]1C[C@@]2(C(=O)OC)CC(C)(C)CC=C2N(Cc2cccc3ccccc23)C1=O	-18.8%	-26.7%
Oc1ccc(N=Nc2nc(-c3ccccc3)c(-c3ccccc3)[nH]2)cc1	63.0%[activator]	0.6%
COc1ccc(OC)c(NC2=C(c3ccccc3)C(=O)c3ccccc32)c1	-14.3%[7.34 µM]	?
O=C(C1CC1)N1CCN(c2ccnc3cc(Cl)ccc23)CC1	-4.5%	i
COc1cc(/C=C/C(=O)Nc2ccc(OC)c(S(=O)(=O)N3CCOCC3)c2)ccc1OCC#N	-21.3%	i
Cc1cc(C(=O)COC(=O)c2ccc(O)cc2)c(C)n1CCc1ccc(F)cc1	-10.9%	-16.6%
CCOC(=O)CSc1nnc(-c2c[nH]c3ccccc23)n1CC	7.0%	13.7%
O=C(CSc1nc2c(c(C(F)(F)F)n1)CCc1ccccc1-2)NCc1ccc(F)cc1	2.4%	-8.8%
O=C(c1ccc(OC2CCN(Cc3ccc(C(F)(F)F)cc3)CC2)cc1)N1CCCCC1	-11.0%	-12.2%
O=C(Cn1c(SCc2ccccc2F)nc2ccncc21)Nc1ccccc1C(F)(F)F	-0.2%	-0.8%
Cc1ccc(S(=O)(=O)N2CCC(C(=O)Nc3nnc(COc4ccccc4)s3)CC2)cc1	-11.8%	-24.8%
CN(C)c1ccc(CNC(=O)C2CCN(S(=O)(=O)c3ccc4c(c3)CCCC(=O)N4)CC2)cc1	-3.9%	-2.2%
CCCCCOC(=O)CSc1nc2c(c(=O)[nH]c(=O)n2C)n1Cc1ccc(Cl)cc1	17.4%	-13.4%
Cc1cc2nc(NC(=O)C3(C)CCCN(C(C)C)C3)[nH]c2cc1C (centres undefined)	-0.6%	-4.4%
O=c1[nH]c2ccc(S(=O)(=O)N3CCCCC3)cc2s1	4.7%	-11.6%
CN1CCc2nc3sc(C(=O)Nc4ccccc4C(F)(F)F)c(N)c3cc2C1	-0.8%	10.8%
CC1(C)OC1(C#N)c1ccccc1 (centres undefined)	-13.4%	i
C/C=C(\C)C(=O)NNC(=O)c1sc(-c2ccccc2)nc1C	-6.9%	-6.8%
COc1ccc(C2Nc3ccccc3NC3=C2C(=O)CC(C)(C)C3)cc1O (centres undefined)	-15.5%	-18.1%
O=C(NC1(C(F)(F)F)N=C2SCCN2C1=O)c1cccnc1 (centres undefined)	-2.0%	-11.9%
COC(=O)c1ccc(Cl)c(NC(=O)CN2CCOCC2)c1	-24.4%	.
O=C(CSc1nnc(CNC(=O)c2cccs2)o1)c1ccc(Cl)cc1	-20.2%	-22.6%
Cc1ccc(C(=O)OCCc2sc[n+](Cc3ccccc3)c2C)cc1	-11.6%	-10.1%
CN(Cc1cnccn1)C(=O)CC1C(=O)NCCN1CC(c1ccccc1)c1ccccc1 (centres undefined)	-12.2%	-10.8%
CCOC(=O)c1ccc(NC(=O)NCCOCCn2c(=O)oc3ccccc32)cc1	-14.0%	-9.4%

In the list so far, these have a cyano group:
SMILES	Vaccinia Venus	VACV mCherry inh
COc1cc(/C=C/C(=O)Nc2ccc(OC)c(S(=O)(=O)N3CCOCC3)c2)ccc1OCC#N	-21.3%	i
CC1(C)OC1(C#N)c1ccccc1 (centres undefined)	-13.4%	i

Next records
SMILES	Vaccinia Venus	VACV mCherry inh
C#CCNC(=O)C1=C[C@H](C2CCCCC2)C[C@H](OCCCCO)O1	-5.5%	i
Cc1onc(-c2ccccc2Cl)c1C(=O)OCC(=O)c1ccccc1	-17.1%	-23.8%
CN1CC(=O)NC1=NC(=O)C12CC3CC(CC(C3)C1)C2	-12.3%	.
CC1(C)N([O-])C2=C(c3ccccc3C2=O)[N+](=O)C1(C)C	7.1%	.
CC(=O)N1CCCc2cc(S(=O)(=O)N(C)CC(=O)Nc3cccc(Cl)c3C)ccc21	-22.0%	-12.1%
Cc1ccc(Cl)cc1N(C)C(=O)c1cnc(N2CCOCC2)c2ccccc12	-11.0%	-7.2%
CCOC(=O)N1CCC(N2CCN(Cc3ccc(C)o3)C(CCO)C2)CC1 (centres undefined)	-15.6%	-14.3%
Cc1ccnc(NC(=O)CCCOc2ccccc2)c1	-7.4%	i
COc1cc(C[C@H](C)[C@H](C)Cc2ccc3c(c2)OCO3)ccc1O	-21.3%	-23.9%
CCOc1ccc(NC(=O)CSc2nc3cccnc3n2CCOC)cc1	-21.4%	i
CCCCCCN1C[C@@H](n2cc(COC(=O)c3ccccc3)nn2)[C@H](O)C[C@@H]1c1ccc(OC)cc1	?	?
CC1=C(C(=O)OCc2ccccc2)N2C(=O)[C@@H](NC(=O)COc3ccccc3)[C@H]2SC1	-13.0%&-10.9%	-7.2%
COc1ccc(-c2nc(CCNC(=O)c3cc(OC)c(OC)c(OC)c3)cs2)cc1	-13.6%	-8.1%
CC(C)(C)NC(=O)C1C(c2ccccc2)=Nc2ccccc2N1C(=O)c1ccc(C(F)(F)F)cc1 (centres undefined)	-9.5%	-23.8%
O=C(COC(=O)CC1CC2CCC1C2)NCc1ccc(F)cc1 (centres undefined)	-4.2%	i
O=C(N[C@H]1c2ccccc2C[C@H]1O)[C@H]1O[C@@H](n2ccc(=O)[nH]c2=O)[C@H](O)[C@@H]1O	8.4%	63.4%[activator]
CC(C)(C)NC(=O)Cn1c(SCC(=O)NC2CCCC2)nc2ccccc21	9.9%	i
CCOC(=O)C1CCN(C(=O)COC(=O)c2oc3ccccc3c2C)CC1	-6.3%	-11.4%
Cc1ccc(S(=O)(=O)N2CCC(C(=O)NCc3ccccc3Cl)CC2)cc1	-10.6%&-13.3%	-17.6%&-0.4%
CC(=Nc1ccc(O)cc1)c1sc2ccccc2c1O	-24.1%	-15.1%
CCN(CC)S(=O)(=O)c1ccc(C(=O)NCC(=O)N/N=C/c2ccccc2OC)cc1	-13.8%	i
c1ccc2c(c1)OCC(CNc1ncnc3nc[nH]c13)O2 (centres undefined)	-22.6%	-14.9%
CCOC(=O)C(=NCCOC)NNc1cc(Cl)ccc1Cl	-8.9%	-8.3%
O=C(CN1C(=O)c2ccc([N+](=O)[O-])cc2C1=O)Nc1nnc(C2CC2)s1	-3.5%	i
CC(=O)c1c(C)[nH]c(C(=O)OCC(=O)Nc2cc(S(=O)(=O)N3CCCC3)ccc2Cl)c1C	-11.0%	-6.5%

An excerpt of these results, as labelled records.
> CC(C)(C)NC(=O)Cn1c(SCC(=O)NC2CCCC2)nc2ccccc21
  Vaccinia Venus = 9.9%
  VACV mCherry inh = i
> CCOC(=O)C1CCN(C(=O)COC(=O)c2oc3ccccc3c2C)CC1
  Vaccinia Venus = -6.3%
  VACV mCherry inh = -11.4%
> Cc1ccc(S(=O)(=O)N2CCC(C(=O)NCc3ccccc3Cl)CC2)cc1
  Vaccinia Venus = -10.6%&-13.3%
  VACV mCherry inh = -17.6%&-0.4%
> CC(=Nc1ccc(O)cc1)c1sc2ccccc2c1O
  Vaccinia Venus = -24.1%
  VACV mCherry inh = -15.1%

Additional records follow:
SMILES	Vaccinia Venus	VACV mCherry inh
COc1ccc2c(=O)c3c(=O)n(CCc4ccccc4)c(C)nc3oc2c1	-12.6%	-9.9%
CCCOc1nc2ccccc2cc1/C=C/C(=O)O	-6.9%	-13.1%
Cc1cc(OCC(=O)Nc2ccccc2F)nc(C(C)C)n1	-3.7%	-12.5%
CC(=O)Nc1ccc(NC(=O)CSc2nnc(NC(=O)C3CC3)s2)cc1	-4.2%	i
Cc1cc(C=O)c(C)n1C1CCCCC1	-20.1%	.
CC(C)CCNC(=O)c1nnc(Cc2ccc(Cl)cc2)o1	-20.0%	i
Cc1ccccc1-c1cncnc1NC1CCNCC1	0.0%	-22.6%
O=C(Nc1ccc(Cl)c(Cl)c1)c1ccc(Cn2c(=O)[nH]c3ccsc3c2=O)cc1	?	-15.5%
Nc1ccccc1SC1CC(=O)N(c2ccccc2Cl)C1=O (centres undefined)	-9.6%	i
Cc1c(N=C2NN=C(c3c[nH]c4ccccc34)CS2)c(=O)n(-c2ccccc2)n1C	-11.9%[7.34 µM]	-8.2%[7.34 µM]
Cn1c(=O)oc2cc(S(=O)(=O)N3CCOCC3)ccc21	-10.9%	.
C=CCn1c(Sc2nnc(C)s2)nc2c1c(=O)[nH]c(=O)n2C	-17.1%	-24.9%
OCCNc1ncnc2c1ncn2[C@H]1CN(Cc2ccncc2)C[C@@H](CO)O1	-8.8%	i
COc1ccccc1N1CCN(C(=O)c2nn(-c3ccccc3OC)c(=O)c3ccccc23)CC1	-6.9%	.
C=CCNc1ncnc2c1ncn2[C@H]1CN(CCc2ccccc2)C[C@@H](CO)O1	-1.3%	20.3%
COc1ccc(CCN(C)C(=O)c2ccc(OCC(=O)N3CCOCC3)c(OC)c2)cc1OC	-5.5%	-5.7%
CN1C(=O)CC(N2CCC(c3nc4ccccc4s3)CC2)C1=O (centres undefined)	-6.2%	-10.1%
c1ccc2c(c1)CC(CN1CCNCC1)O2 (centres undefined)	-8.4%	-15.7%
COc1ccc(S(=O)(=O)N(C)c2nc3ccccc3n3c(CC(C)C)nnc23)cc1	-24.2%	-5.9%
Cc1ccc(-c2nnc3ccccc3c2C(=O)Nc2ccc(F)cc2)cc1	-5.9%	-9.0%
COc1ccc(CNC(=O)C2(c3ccc(Cl)cc3)CC2)cc1	-12.6%	i
Cc1ccc(NC(=O)CSc2nnc(/N=C/N(C)C)s2)cc1	-1.1%	i
CSc1ncc(C(=O)Nc2ccccc2C(=O)c2ccccc2)c(C(F)(F)F)n1	-4.5%	-6.1%
COc1cc(OC)c2c(-c3cccc(-c4cccc(C)c4)c3)cc(=O)oc2c1	?	i
O=C(Nc1ccc2c(c1)CCC2)c1ccc(Br)o1	-20.1%	-29.0%
Next records
SMILES	Vaccinia Venus	VACV mCherry inh
Cc1cccc(NC(=O)CSc2ncc(-c3ccccc3)[nH]2)c1C	0.9%	-11.3%
CC[C@@]12C(=O)N(c3cccc(Cl)c3)C(=O)N1[C@H](c1ccc(Br)cc1)[C@@H]1C(=O)N(C(C)(C)C)C(=O)[C@@H]12	-29.6%	-9.0%
COc1ccc(NC(=O)c2cccc(Oc3ccc([N+](=O)[O-])cc3Cl)c2)cc1	-20.8%	?
O=C(NNC(=O)c1cccc(Cl)c1)NNC(=O)c1cccc(Cl)c1	-12.8%	-11.5%
COc1ccccc1N(CC(=O)NCc1ccccn1)S(C)(=O)=O	-7.2%	i
Cc1n[nH]c(=O)c2c(NC(=O)CSc3nnc(C4CC4)n3C)oc(C)c12	-11.1%	-12.2%
CCCc1nn(C)c(C(=O)Nc2ccc3ccccc3c2)c1Cl	-7.0%	i
Cc1ccc2nc(NC(=O)c3ccc(NS(=O)(=O)c4cccs4)cc3)sc2c1	-18.2%	-23.5%
CCCOc1ccc2oc(=O)c3c(c2c1)CCCN3C(=O)CN(C)Cc1ccccc1	-25.3%	.
Cc1cc(-c2ccc(S(=O)(=O)Nc3ccc(Br)c(C)c3)s2)on1	?	-7.9%
CN1CCN(NC(=O)c2ccc(COc3ccccc3Br)o2)CC1	-19.7%	-8.3%
C[C@@H]1CN([C@@H](C)CO)S(=O)(=O)c2ccc(C#Cc3cccc(F)c3)cc2O[C@@H]1CN(C)CC1CC1	-19.0%	-23.0%
Cc1nnc(SCC(=O)NC(C)c2ccccc2)[nH]c1=O (centres undefined)	-35.1%	.
Cc1ccc(NC(=O)C2CCN(S(=O)(=O)c3cccs3)CC2)c(O)c1	-16.5%	-7.1%
COc1ccc(COCCN2CCN(S(=O)(=O)c3ccccc3)CCC2=O)cc1	-4.8%	i
CC1=C(C#N)C(=O)NC(=O)/C1=C\c1ccc(-c2cc(C)c(C)cc2[N+](=O)[O-])o1	-12.3%	-0.6%
COC(=O)c1c(C)c(OC(=O)c2c(C)cc(O)c(C=O)c2O)cc(C)c1O	-18.6%	-14.1%

Arranged by heavy-atom count (low to high): three of the compounds above.
SMILES	Vaccinia Venus	VACV mCherry inh
COc1ccc(COCCN2CCN(S(=O)(=O)c3ccccc3)CCC2=O)cc1	-4.8%	i
COc1cc(/C=C/C(=O)Nc2ccc(OC)c(S(=O)(=O)N3CCOCC3)c2)ccc1OCC#N	-21.3%	i
COc1ccccc1N1CCN(C(=O)c2nn(-c3ccccc3OC)c(=O)c3ccccc23)CC1	-6.9%	.

Quoted from the listing (2 entries):
SMILES	Vaccinia Venus	VACV mCherry inh
CC1=C(C#N)C(=O)NC(=O)/C1=C\c1ccc(-c2cc(C)c(C)cc2[N+](=O)[O-])o1	-12.3%	-0.6%
COC(=O)c1c(C)c(OC(=O)c2c(C)cc(O)c(C=O)c2O)cc(C)c1O	-18.6%	-14.1%
